S aureus helic: S. aureus DNA helicase inhibition; purified S. aureus helicase, fluorescence unwinding assay; about half of the hits fall short of the stated cut; 120,000 tested, 0.05% active; inhibition, %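 (tested at about 80 µM)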;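 active = both duplicates at 50% or more, or one of them with a favoured structure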;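 note: 0% = mean of negative control wells and 100% = mean of positive control wells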
MgrA DNA FP: modulators of Staphylococcus aureus MgrA DNA binding. 84,000 tested, 0.13% active. inhibition, %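 (about 10 µg/mL by stock and volumes)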. AID 602314. fluorescence polarization;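 active = above 50% in either of two replicates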;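 note: 0% = protein plus DNA without compound and 100% = DNA alone without protein; higher means less MgrA bound to DNA so lower polarization; one replicate is shown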
An asterisk follows results filed as active; . = not tested or not shown; & = joins results of further samples. These rows are one share of the data; rates above refer to the full screens.

SMILES	S aureus helic	MgrA DNA FP
COC(=O)c1ccc(CSc2ccc3nnc(-c4ccc(Cl)cc4)n3n2)o1	15	3.0
CCCc1cc(C(=O)O)n(C)n1	10	.
Cc1cccc(-c2nc3cccc(F)c3c(=O)o2)c1	.	-1.8
N#Cc1nccnc1Oc1cccc(C(F)(F)F)c1	19	.
CC1CCN(C(=O)Cn2nnc3ccccc3c2=O)CC1	-4	17
CC(C)(C)C(=O)NC(=S)N1CCc2ccccc21	-6	1.1
CN(Cc1ccccc1)c1ncnc2sccc12	-10	.
CCC(Cc1ccccc1)NC(=O)C1CCCN(c2nnc(-n3cccc3)s2)C1 (stereo unspecified)	20	.
CCCNS(=O)(=O)c1ccc(NC(=O)C2CC(=O)N(c3ccc(OCC)cc3)C2)cc1 (stereo unspecified)	10	-1.9
CSc1ccc(Oc2ccc(C(F)(F)F)cc2[N+](=O)[O-])cc1	.	1.1
O=S(=O)(c1ccc(Cl)cc1)c1nc(N2CCOCC2)sc1Cl	2	.
CCn1cc(C(=O)NCCC(C)C)c(=O)c2cc(S(=O)(=O)N3CCCCC3)ccc21	6	-1.8
O=C1CNC(=S)N1CCOc1ccccc1	.	-2.3
Cc1noc(C)c1S(=O)(=O)NCc1ccc2c(c1)OCO2	-6	.
CCCCC[C@H](O)/C=C/[C@@H]1[C@@H](CC(=O)CCCCC(=O)O)[C@@H](O)C[C@H]1O	.	7.8
Oc1cccc(N=Cc2sc(=S)n(C3CCCCC3)c2O)c1	-5	11
Nn1c(CSCc2ccccc2)nnc1CSCc1ccccc1	10	-0.2
CCCn1cnc2cc(NCc3ccco3)ccc21	-11	.
CN1CCN(Cc2c(O)ccc3c(-c4ccccc4)cc(=O)oc23)CC1	18	.
Cc1cc(C)n(C(=O)CSc2nc(-c3ccccc3)cc(C(F)(F)F)c2C#N)n1	.	2.2
CCOC(=O)/C(=N\Nc1ccccc1C(F)(F)F)N1CCOCC1	13	.
CCN(Cc1cc2cc3c(cc2[nH]c1=O)OCCO3)c1ccc2c(c1)OCCO2	-37	.
CSC(=S)N(c1ccccc1)c1ccccc1	-4	-0.9
Cc1ccc(N/C=C(/C#N)c2ccsc2)cc1	.	-1.8
CN(C)c1ccc(/C=N/N=C/c2ccc(N(C)C)cc2)cc1	-11	.

Quoted from the listing.
In MgrA DNA FP, Cc1cc(C)n(C(=O)CSc2nc(-c3ccccc3)cc(C(F)(F)F)c2C#N)n1 is listed with 2.2
In S aureus helic, CCC(Cc1ccccc1)NC(=O)C1CCCN(c2nnc(-n3cccc3)s2)C1 (stereo unspecified) is listed with 20
In MgrA DNA FP, O=C1CNC(=S)N1CCOc1ccccc1 is listed with -2.3
In S aureus helic, CCCc1cc(C(=O)O)n(C)n1 is listed with 10
In S aureus helic, CCN(Cc1cc2cc3c(cc2[nH]c1=O)OCCO3)c1ccc2c(c1)OCCO2 is listed with -37

The list continues:
SMILES	S aureus helic	MgrA DNA FP
COc1ncnc2c1sc1nc(N3CCOCC3)c3c(c12)CCCC3	2	.
C=CCN1C(=O)C(CC(=O)Nc2ccc(Cl)cc2)SC1=Nc1ccc(O)cc1 (stereo unspecified)	1	.
Cc1ccc(-c2nn(-c3ccccc3)cc2/C=C2\SC(=S)NC2=O)cc1	-6	4.2
CCOc1ccccc1N=C1NC(=O)CS1	-15	1.0
FC(F)(F)c1cccc(NC(=S)N2CCc3ccccc3C2)c1	.	1.6
O=C(NCCC1=CCCCC1)c1ccc2snnc2c1	9	-2.8
Fc1ccc(-c2csc(-c3cccnc3)n2)cc1	.	-2.5
C/C(=N\Nc1nc2sc3c(c2c2ncnn12)CC(C)(C)OC3)C(=O)O	16	7.2
CN1C(C(=O)Nc2ccccn2)=C(O)c2sccc2S1(=O)=O	.	-3.1&-0.9
COC(=S)Nc1ccc(Cl)cc1C	.	-0.9
N#Cc1c(N)nc(CCc2ccccc2)c(C#N)c1N	8	6.0
CC(CC1C(C#N)=C(N)SC(N)=C1C#N)c1ccccc1 (stereo unspecified)	-22	22
O=C(COc1ccccc1)NC1=NCCS1	-10	-0.8
Cc1nn(C(=O)c2cc3sc(Br)cc3[nH]2)c(C)c1C	11	-2.7
CC12CC3(C)CC(C)(C1)CC(C(=O)O)(C2)C3	.	-0.2
CCN1CCSC1=Nc1ccc(OC)cc1	-3	.
CC(C)CN(CC(C)C)C(=O)Nc1ccccc1C(F)(F)F	2	-1.8
CCN(CC)c1ncc(C#N)c(N)n1	.	-9.8
Cc1cc2ccccc2n1CCNC(=O)C(C)Oc1ccccc1 (stereo unspecified)	-4	.
Cn1c(=O)c2c(nc(SCC(=O)c3ccccc3)n2CCCc2ccccc2)n(C)c1=O	4	1.4
O=C(CCn1cccc1)N(CCN1CCOCC1)Cc1ccco1	0	.
O=C(Cn1c(=O)n(Cc2ccco2)c(=O)c2sc3ccccc3c21)NC1CCCC1	16	.
CN(C)CCN1C(=O)C(=O)/C(=C(/O)c2ccc(S(=O)(=O)N(C)C)cc2)C1c1ccccc1 (stereo unspecified)	-2	0.6
Cc1ccc2cc(C#N)c(NCCNC(=O)Nc3ccccc3C)nc2c1	-5	-0.9
COC(=O)C(OC(=O)c1ccc(-n2cccn2)cc1)c1ccccc1 (stereo unspecified)	-7	.

Next section.
SMILES	S aureus helic	MgrA DNA FP
COc1cccc(Nc2ncnc3c2cnn3-c2ccccc2)c1	-18	.
O=C(CC(SCc1ccco1)c1ccc(F)cc1)c1cccs1 (stereo unspecified)	5	0.0
C/C(=N\NC(=O)Cc1nc2ccccc2n1C)c1ccc(S(=O)(=O)NCCC(=O)O)cc1	2	.
COc1ccc(OC)c(/C=C\C(=O)NCC(=O)O)c1	3	0.5
CC12CCC(C1)C(C)(C)C2N (stereo unspecified)	.	-2.6
CCOC(=O)c1sc(COc2ccc3nonc3c2)nc1C	.	0.6
COc1ccc(C(=O)/C=C2\NC(=O)CS2)cc1	23	0.8
O=C(CC1COc2ccccc2O1)NCc1ccccc1 (stereo unspecified)	4	-2.1
COc1cc2[nH]c(=O)c(C(=O)NCCCc3ccccc3)c(O)c2cc1OC	1	-2.5
CCOc1ccc(NC(C)=O)cc1Br	-4	-0.4
COC(=O)C1=C(O)/C(=C\c2cc(C)n(-c3ccc(OC)c(Cl)c3)c2C)N=C1C	-8	8.1
CC(NC(=O)Cn1nc(Cc2cccnc2)c2ccccc2c1=O)c1ccc2c(c1)OCCO2 (stereo unspecified)	11	.
COc1ccc(C(=O)OCC(N)=O)cc1S(=O)(=O)N1CCCc2ccccc21	9	.
COc1ccc(-c2n[nH]c(=S)n2CCC(=O)NC(C)c2ccccc2)cc1 (stereo unspecified)	10	.
CC1(C)C=Cc2cc(OCC(=O)O)ccc2O1	-2	-4.9
CCOC(=O)c1c(Nc2ccc(Br)cc2C)n[nH]c1C	.	0.4
CCC(=O)N1N=C(c2cccs2)CC1c1cccs1 (stereo unspecified)	9	-2.3
CC(=O)N1CCC(N(C(=O)Nc2ccc(Cl)cc2)C2CCCCC2)CC1	-1	.
CC(=O)NC(C)c1nc2ccccc2n1Cc1ccccc1 (stereo unspecified)	15	-0.3
N#Cc1ccsc1NC(=O)CCS(=O)(=O)c1ccccc1	1	.
NS(=O)(=O)c1ccc(-c2ccon2)s1	.	-2.4
Cc1cc(COC(=O)c2ccc3ncsc3c2)no1	8	.
CCOC(=O)C1C(=O)C=C(c2ccco2)CC1c1ccc(F)cc1 (stereo unspecified)	23	.
O=C(Cn1ccc2ccccc2c1=O)NCCC(=O)N1CCN(c2cccc(Cl)c2)CC1	-22	.
COC(=O)Cn1c(=S)[nH]c2ccccc2c1=O	3	.

Gathered by group, the compounds so far with a furan ring, fused or not.
SMILES	S aureus helic	MgrA DNA FP
COC(=O)c1ccc(CSc2ccc3nnc(-c4ccc(Cl)cc4)n3n2)o1	15	3.0
CCCn1cnc2cc(NCc3ccco3)ccc21	-11	.
O=C(CCn1cccc1)N(CCN1CCOCC1)Cc1ccco1	0	.
O=C(Cn1c(=O)n(Cc2ccco2)c(=O)c2sc3ccccc3c21)NC1CCCC1	16	.
O=C(CC(SCc1ccco1)c1ccc(F)cc1)c1cccs1 (stereo unspecified)	5	0.0
CCOC(=O)C1C(=O)C=C(c2ccco2)CC1c1ccc(F)cc1 (stereo unspecified)	23	.

Further records follow:
SMILES	S aureus helic	MgrA DNA FP
CCN=c1scc(-c2ccc(F)cc2)n1/N=C(\C)CC(C)C	-7	.
CC(NC(=O)C1CC1(C)C)c1ccccc1 (stereo unspecified)	-15	.
COc1cc(/C=C2\C(=N)N3N=C(C)SC3=NC2=O)cc(Cl)c1OCCOc1ccc(NC(C)=O)cc1	-25	.
COc1ccccc1C(=O)Nc1ccc(NC(=O)c2ccccc2)nc1	8	-1.6
Cc1ccc2nc(Cl)c(CC3CC(c4ccccc4)=NN3C(=O)CCCC(=O)O)cc2c1 (stereo unspecified)	5	3.2
CC(C)NC(=O)Cn1cnc2c1c(=O)n(C)c(=O)n2C	-3	0.9
COc1ccc(OC)c(-n2c(-c3cc(-c4ccco4)[nH]n3)n[nH]c2=S)c1	5	9.4
O=C1NC(=O)c2cc(S(=O)(=O)N(CCO)CCO)cc3cccc1c23	16	1.4
CCOC(=O)c1nc(N)c(=O)n(-c2ccc(C(=O)O)cc2)n1	11	-1.5
CCN(Cc1ccccc1)S(=O)(=O)c1ccc(-c2cc(C(F)(F)F)no2)s1	10	.
COc1ccc(/C=C(\NC(=O)c2ccccc2)C(=O)N2CCN(C)CC2)cc1	2	-1.9
Cc1ccc(C(=O)NC(C)C)cc1C	6	-1.1
CCN(CC)S(=O)(=O)c1ccc(/C=C/C(=O)N=c2sccn2C)cc1	1	.
FC(F)(F)c1ccnc(NCc2ccco2)n1	.	-0.2
CCOC(=O)C1CCCN(C(=O)COc2ccccc2F)C1 (stereo unspecified)	13	0.3
CCCC1C2CC(C)CC=C2C(C#N)=C(N)C1(C#N)C#N (stereo unspecified)	16	1.4
COc1cc(C(=O)NC2=C(C#N)CCC2)cc(OC)c1OC	11	5.9
COc1ccc(OC)c(C2=NOC(C(=O)Nc3ccc4c(c3)OCO4)C2)c1 (stereo unspecified)	11	.
NC(=O)c1ccc(NC(=O)C#Cc2ccccc2)cc1	13	1.6
O=c1c2ccccc2c(/C=N/n2cnnc2)c(O)n1-c1ccccc1	-2	.
CCC(C)NC(=O)c1c(-c2c(F)cccc2Cl)noc1C (stereo unspecified)	-18	-0.8
COc1ccc(N(C)C(C)=O)cc1	-1	2.0
Cc1ccc(/C=C/C(=O)NC(=S)N2CCN(c3ccc(F)cc3)CC2)cc1	11	-1.5
O=c1[nH]c2ccc(S(=O)(=O)N3CCc4ccccc43)cc2[nH]c1=O	8	.
Cc1ccccc1OCCSc1nc2ccccc2n1CC(O)CO (stereo unspecified)	.	2.7

Other structures:
SMILES	S aureus helic	MgrA DNA FP
CCNC(=S)Nc1cc(-c2ccc(Cl)cc2)[nH]n1	13	0.9
CC(C)(C)c1ccc(NC(=O)COC(=O)c2ccc(F)cc2F)cc1	-5	4.8
COc1ccccc1Oc1ccc(S(=O)(=O)NCc2ccco2)cc1	22	.
Cc1cc(N(C(=O)c2cnccn2)C(C(=O)NCc2ccccc2)c2cccs2)ccc1-n1cnnn1 (stereo unspecified)	18	-0.3
NC(=O)Cn1c(=O)n(Cc2ccco2)c(=O)c2ccccc21	16	-1.5
CC(C)CNc1cc(Cl)c2noc3c2c1C(=O)c1ccccc1-3	-195	36
CC(C)CC1NC(=O)NC1=O (stereo unspecified)	.	0.1
CC(C)(CNS(=O)(=O)c1ccc2ccccc2c1)N1CCOCC1	-6	.
Nc1cc(N)nc(Sc2ncnc3ccccc23)n1	19	-1.8
CCCNC(=O)N1CCn2cccc2C1C (stereo unspecified)	-11	.
Cc1ccc(NC(=O)c2cc3ccccc3oc2=O)cc1C	18	.
CC(NS(=O)(=O)c1cccc(C(F)(F)F)c1)C(C)(C)C (stereo unspecified)	.	-1.9
O=C(CSc1nnc2ccccn12)NCc1ccco1	.	-3.0
Cc1c(F)cccc1NC(=O)c1cc(=O)n(C)c(=O)n1C	8	-0.8
CC(C)CNC(=O)c1ccc2snnc2c1	-4	.
O=c1[nH]cnc2nn(-c3ccccc3)nc12	17	-4.0
COc1ccc(C(=O)OC2CCCCC2=O)cc1OC (stereo unspecified)	19	.
O=C(C1CCCCC1)N(Cc1nc2sc3c(c2c(=O)[nH]1)CCCC3)Cc1cccs1	3	-0.3
COc1ccc(S(=O)(=O)NNc2c(Cl)cc(Cl)cc2Cl)cc1OC	.	0.9
O=C(CCn1c(=O)sc2ccccc21)Nc1ccccc1	7	.
O=C1CCC(C(=O)O)C(Cc2ccccc2)C1 (stereo unspecified)	12	.
C=CCn1c(SCC(=O)Nc2cc(OC)c(NC(=O)c3ccco3)cc2OC)nnc1-c1ccncc1	6	2.2
O=C(Nc1sc2c(c1C(=O)NCc1ccco1)CCC2)c1cccs1	-5	-0.1
CC(Sc1nc2ccccc2c(=O)n1Cc1ccco1)C(=O)NCc1ccc2c(c1)OCO2 (stereo unspecified)	-9	.
COc1cc(C2C(C(=O)OCC(C)C)=C(C)NC3=C2C(=O)CC(c2ccccc2)C3)ccc1OC(C)=O (stereo unspecified)	.	-0.4

A second format for part of the listing above.
CCNC(=S)Nc1cc(-c2ccc(Cl)cc2)[nH]n1
  S aureus helic: 13
  MgrA DNA FP: 0.9

CC(C)(C)c1ccc(NC(=O)COC(=O)c2ccc(F)cc2F)cc1
  S aureus helic: -5
  MgrA DNA FP: 4.8

COc1ccccc1Oc1ccc(S(=O)(=O)NCc2ccco2)cc1
  S aureus helic: 22
  MgrA DNA FP: .

Cc1cc(N(C(=O)c2cnccn2)C(C(=O)NCc2ccccc2)c2cccs2)ccc1-n1cnnn1 (stereo unspecified)
  S aureus helic: 18
  MgrA DNA FP: -0.3

Next section.
SMILES	S aureus helic	MgrA DNA FP
S=C(NCc1ccccc1)NC(Cc1ccccc1)c1ccccc1 (stereo unspecified)	.	-1.1
CCCCn1c(=O)c2oc3ccccc3c2n(CC(=O)Nc2cccc(OC)c2)c1=O	16	.
CCN(C(=O)CSc1ccc(Br)cc1)c1ccccc1	-11	-3.9
COC(=O)c1ccccc1N=CNO	.	-2.7
O=C(/C=C/c1ccccc1)OCc1nc2ccccc2s1	-6	-0.8
COCc1cc(=O)oc2cc(N)ccc12	.	-0.7
